# Screening results deposited in PubChem BioAssay by National Center for Advancing Translational Sciences (NCATS).
# Rango release inh: prevents RanGTP from dissociating the Rango-importin beta complex; O95149+P62826; Biochemical FRET Rango-importin beta, RanGTP-induced dissociation; Potency, µM (titrated, usually from 46.1 µM), inactives show at the highest dose activity change, negative = inhibition; actives 0.071% (n = 340,000); AID 540253; active means falling FRET ratio curve, often poorly fitted, with flat reads before Ran was added; inconclusive means other falling curves, or compound fluorescence or quenching; inactive means flat or rising ratio curve;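 further: potency means the concentration at half of the fitted maximal effect; % of control where 0% means no effect; nearly all actives have a fitted effect of over 45% in size; -100% = wells without RanGTP and RCC1; the record marks most hits as doubtful in a second field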
#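 Compounds preincubate 5 min with complex of recombinant Rango and importin beta in PBS with 1 mM DTT. Ran (0.6 uM) loaded with 2 mM GTP plus 0.2 uM RCC1 starts dissociation; FRET is recorded 45 min later.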
# Rango-impB inh: inhibitors of Rango-importin beta complex formation. Q14974. Potency, µM (doses to about 92.2 µM), without a hit: top-dose inhibition of complex formation. Rango CFP/YFP FRET sensor + importin beta, 45 min. actives 0.031% (n = 340,000). AID 540263; active = rising FRET ratio curve, often small or poorly fitted; inconclusive = mostly compound fluorescence or quenching in the first reads; inactive = flat curves in all reads;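 further: potency means the concentration at half of the fitted maximal effect; 0% = DMSO wells and 100% = buffer wells lacking importin beta; nearly all actives have a fitted effect of over 15% in size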
#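 FRET biosensor Rango (snurportin 1 IBB between N-terminal EYFP and C-terminal Cerulean), 50 nM in PBS/1 mM DTT/0.02% Tween-20/0.1% BSA, preincubated 5 min RT with compound; 0.125 microM importin beta added, 45 min RT, CFP/YFP FRET ratio read.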
# miR-21 reporter: raises the signal of a miR-21 reporter | HeLa miR-21 FLuc reporter, luciferase, 48 h | Potency, µM (highest dose often 38.3 µM), inactives show at the highest dose reporter change, positive = more light | 340,000 tested, under 10 active | AID 2288; active = well fitted rising curve with a large enough effect; inconclusive = small, poorly fitted or top-dose-only effect; inactive = no such curve, though single readings can be large or run the other way;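 further: % of control where 0% means no effect; miR-21 action dims this reporter so a rising signal means less miR-21 action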
#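 HeLa cells endogenously expressing miR-21, stably carrying CMV-driven firefly luciferase with a downstream miR-21 binding site, 2000 cells/well. Titrations up to approximately 40 uM, 48 hours; luciferase luminescence read.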
# GLA inh pH 4.5: blocks human alpha-galactosidase A at pH 4.5; P06280; purified enzyme, 4-MU-alpha-Gal fluorescence, pH 4.5; activity change, negative = inhibition, % at 105 µM; 230,000 tested, under 10 active; inconclusive = small, poorly fitted or top-dose-only inhibition, or a rising curve; inactive = flat fitted curve, though single readings scatter; no compound was filed as active;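 further: 0% = full activity with enzyme and -100% = basal without enzyme; dose as in the result columns while the protocol names 77 µM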
# Target sequence (P06280 whole entry, looked up): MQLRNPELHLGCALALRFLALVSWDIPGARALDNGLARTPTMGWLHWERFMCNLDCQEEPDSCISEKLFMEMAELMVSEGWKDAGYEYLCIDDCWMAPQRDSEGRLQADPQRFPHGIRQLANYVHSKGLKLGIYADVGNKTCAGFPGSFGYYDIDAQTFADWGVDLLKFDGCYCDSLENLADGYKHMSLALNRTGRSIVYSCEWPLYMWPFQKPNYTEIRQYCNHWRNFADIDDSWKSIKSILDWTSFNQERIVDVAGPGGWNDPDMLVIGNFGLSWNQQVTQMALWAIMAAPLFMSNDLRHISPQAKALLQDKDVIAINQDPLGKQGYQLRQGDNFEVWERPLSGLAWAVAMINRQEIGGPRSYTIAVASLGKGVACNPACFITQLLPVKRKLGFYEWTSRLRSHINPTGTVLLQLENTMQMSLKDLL
# * = called active by the depositor; u = inconclusive; x = no result given; & = joins results of further samples; [ ] = dose if it differs, or a comment. This is a subset; rates above refer to the full screens.
SMILES,Rango release inh,Rango-impB inh,miR-21 reporter,GLA inh pH 4.5
CS(=O)(=O)N(CC(=O)N1CCN(C(c2ccccc2)c2ccccc2)CC1)C1CCCCC1,-5%,0.0%,0%,6
Cc1nn(Cc2ccccc2Cl)c(C)c1C(=O)Nc1nnc(C2CC2)s1,2%,-2.5%,13%,0
COc1ccc([N+](=O)[O-])cc1NC(=O)C(C)OC(=O)CC1CCCC1 (stereo not given),-7%,-4.3%,x,x
CC1CCCC(C)N1/N=C/c1ccc([N+](=O)[O-])cc1 (stereo not given),13%,4.9%,-25%,x
CC(=O)Oc1ccc(OC(C)=O)c(S(=O)(=O)c2ccc(C)c(C)c2)c1,8%,0.5%,-4%,x
C[C@]12CC[C@@H]3c4ccc(OC(=O)c5ccccc5)cc4CC[C@H]3[C@@H]1CC[C@@H]2O,-2%,-3.7%,-19%,7
COc1ccc(CC(=O)N[C@@H](CCSC)c2nc3ccccc3[nH]2)cc1,18%,2.2%,0%,-1
CCC(Oc1ccccc1)C(=O)Nc1ncc([N+](=O)[O-])s1 (stereo not given),-26%,-1.0%,2%,-3
O=C(CN1C(=O)NC2(CCCCC2)C1=O)NCCc1ccccc1,-7%,4.8%,x,x
CC1(C)CC(c2nc(-c3ccc([N+](=O)[O-])cc3)cs2)CCO1 (stereo not given),-8%,6.9%,u,-2[21.1 µM]
COc1ccccc1N1CCN(C2CCCN(C(=O)CN3CCCCC3=O)C2)CC1 (stereo not given),11%,3.1%,2%,x
C=CCn1c(SCc2c(C)noc2C)nc2sc3c(c2c1=O)CCCCC3,0%,-1.4%,-2%,-1
CCOC(=O)c1oc2ccccc2c1CSc1nnnn1-c1ccccc1,-8%,1.8%,-2%,-5
COc1cccc(OCCOc2ccccc2OC(C)C)c1,0%,0.5%,-5%,-12
O=C1CN(c2ccccc2)C(=O)N1,23%,1.6%,-12%,-2
Cc1cc(N(C)C)ccc1N=Nc1ccc(N)cc1,10%,5.7%,x,x
Cn1c(N)c(C(=O)CSc2nnc(-c3cccs3)n2C2CC2)c(=O)[nH]c1=O,0%,-0.3%,x,x
Cc1ccc(NC(=O)CN(C)C(=O)c2ccc(Br)o2)cc1,-10%,-2.9%,-6%,x
Cc1cc(C(=O)OCC(=O)N(C)c2ccccc2)ccc1[N+](=O)[O-],11%,u,0%,8
CCN(CC)c1ncnc2c1sc1nc(C)cc(C)c12,0%,-0.5%,-26%,1
Cc1ccc(OCc2cc(C(=O)N(CCO)Cc3cccs3)no2)cc1C,-1%,0.0%,-54%,x
COCCCNC(=S)N1CCN(c2nc(-c3ccc(F)cc3)cs2)CC1,13%,1.6%,19%,x
COc1ccc(C)cc1S(=O)(=O)NC1CC1,-5%,-3.6%,1%,x
CCCCNC(=O)C(c1ccc(-c2ccccc2)cc1)N(CCN1CCOCC1)C(=O)CCCCCN1C(=O)NC(c2ccc([N+](=O)[O-])cc2)C(C(=O)OCc2ccccc2)=C1C (stereo not given),x,x,-13%,-26&-8
COC(=O)CN1C(=O)C(C)=C(c2ccc(C)cc2)S1(=O)=O,1%,-0.7%,-5%,6
SMILES,Rango release inh,Rango-impB inh,miR-21 reporter,GLA inh pH 4.5
COc1cc(C2SCCS2)cc(Br)c1Oc1ncccc1[N+](=O)[O-],17%,4.6%,11%,-7
Nc1csnc1C(=O)O,-2%,-0.1%,-2%,-7
C=CCNc1nc(Nc2ccc(OC)cc2)nc(OCC)n1,0%,-3.5%,-3%,-8
NC(=O)c1ccsc1NC(=O)C1CCN(S(=O)(=O)c2cccs2)CC1,0%,-0.4%,x,x
Cc1ccc2c(COC(=O)C34CC5CC(CC(C5)C3)C4)cc(=O)oc2c1,-3%,-1.5%,4%,4
COc1cc(CNC(=O)CCC(=O)N2C[C@H]3C[C@H](C2)c2cccc(=O)n2C3)cc(OC)c1OC,6%,-0.4%,-1%,x
CN(C)S(=O)(=O)c1ccc(N2CCOCC2)nc1,6%,-0.8%,0%,2
C=C1CCC[C@]2(C)C[C@H]3OC(=O)C(CN4CC(C)OC(C)C4)[C@H]3C[C@@H]12 (stereo not given in full),-6%,-1.1%,3%,x
O=C(CNC(=O)C12CC3CC(CC(C3)C1)C2)OCC(=O)N1CCCCC1,-1%,1.0%,x,x
Cc1ccccc1-n1nc(C(=O)c2cccs2)cc(-c2nc3ccccc3[nH]2)c1=N,-10%,1.2%,-2%,-8
O=C(c1ccc2c(c1)OCO2)N1CCc2ccccc21,-10%,2.8%,-40%,x
COc1ccc(/C=C/c2ccc3cccc(O)c3n2)c(OC)c1OC,-24%,1.6%,-17%,x
CCCCNC(=S)N(C)/N=C/c1ccc(OCC(=O)Nc2ccc(OC)cc2)c(OC)c1,1%,-6.0%,19%,-2
CC(=O)c1c(C)[nH]c(C(=O)N2CCN(c3ccc(F)cc3)CC2)c1C,7%,-2.0%,4%,5
Cc1onc(-c2ccccc2)c1NC(=O)N(CCC#N)Cc1cccs1,6%,-5.2%,8%,-8
Cc1sc(NC(=O)Cn2cnnn2)nc1-c1ccc(Cl)cc1,-5%,-1.6%,1%,11
O=C(Nc1ccc2c3c(cccc13)CC2)c1ccco1,-5%,u,-51%,5
Cc1[nH]nc2c1C(c1cccs1)C1=C(CCCC1=O)N2 (stereo not given),-9%,-4.7%,-16%,-10
CC(=O)Oc1ccc2c(=O)c(N3C(=O)c4ccccc4C3=O)c(C)oc2c1,8%,-2.3%,0%,1
COc1ccc(Br)cc1/C=C/C(=O)Nc1ccc(C)cc1,1%,-0.6%,16%,-9
CCc1ncc(CN2CCCCC2C(=O)Nc2ccc(Oc3ccccc3)nc2)cn1 (stereo not given),10%,1.2%,-1%,x
CC(=O)Nc1cccc(-c2cc(C)c3cc4c(cc3n2)OCO4)c1,u,u,-59%,x
O=C(Nc1ccccc1N1CCCCC1)c1cnccn1,-1%,0.3%,-19%,-4
COc1cccc(N(CC(=O)NC2CC3CCC2C3)S(=O)(=O)c2ccccc2)c1 (stereo not given),27%,-1.7%,-4%,x
COc1ccc(O)c(CNn2c(-c3ccc(Br)cc3)nc3ccccc3c2=O)c1,3%,2.9%,10%,11

# Pulled one by one from the entries so far (three):
SMILES,Rango release inh,Rango-impB inh,miR-21 reporter,GLA inh pH 4.5
COc1ccc(/C=C/c2ccc3cccc(O)c3n2)c(OC)c1OC,-24%,1.6%,-17%,x
CCc1ncc(CN2CCCCC2C(=O)Nc2ccc(Oc3ccccc3)nc2)cn1 (stereo not given),10%,1.2%,-1%,x
Cc1ccc2c(COC(=O)C34CC5CC(CC(C5)C3)C4)cc(=O)oc2c1,-3%,-1.5%,4%,4

# Other results follow:
SMILES,Rango release inh,Rango-impB inh,miR-21 reporter,GLA inh pH 4.5
CCn1nnnc1SCC(=O)N1CCc2ccccc21,0%,3.0%,x,x
CCOc1ccc(NC(c2ccccc2)P(=O)(OC)OC)cc1 (stereo not given),-4%,-0.1%,-9%,x
CN(C)CCCN1c2ccccc2Sc2ccc(Cl)cc21,2%&7%,1.5%&-0.3%,23%&26%,-4&-15&-1&-3&7
CCc1nc2ccccc2n1Cc1ccccc1OC,29%,3.1%,-1%,-16
CCCn1c(=O)c(C(=O)Nc2cc(C)ccn2)c(O)c2ccccc21,0%,-1.9%,-16%,x
Cn1c(=O)c2[nH]c(N3CCN(c4ccccn4)CC3)nc2n(C)c1=O,x,x,8%,3
CCOC(=O)C1(NC(=O)C2(N3C(=O)c4ccccc4C3=O)CCCC2)CCCC1,13%,2.9%,x,x
COc1cccc(OC)c1OCCCOc1cccc2cccnc12,14%,-0.5%,-63%,3
Cc1[nH]c2ccccc2c1C(=O)CSc1ncn[nH]1,-9%,4.6%,-6%,4
CCc1cc(C(=O)Nc2ccc(C)cc2Br)cs1,-1%,0.2%,-65%,-2
COc1ccc(CC(=O)N/N=C/c2ccc(Cl)s2)cc1OC,-5%,-1.0%,-4%,x
CN(Cc1ccon1)C(=O)CCc1nnc(Cc2ccc(-c3ccccc3)cc2)o1,7%,0.7%,-14%,-9
O=C(CSc1nnc2nnc3ccccc3n12)N1CCOCC1,u,u,1%,x
C=C1C[C@H](O[C@@H]2O[C@H](CO)[C@@H](O)[C@H](O)[C@H]2O)[C@@H]2[C@H](OC(=O)[C@H]2C)[C@H]2[C@H](C)[C@@H](O)C[C@@H]12,-5%,5.0%,x,x
Cc1ccc(S(=O)(=O)Nc2cccc(N(C)S(C)(=O)=O)c2)cc1[N+](=O)[O-],0%,-1.0%,2%,-1
O=C(CNC(=O)c1ccc(Cl)cc1Cl)OCc1nnc(-c2ccccc2Br)o1,-1%,-3.3%,x,x
S=c1nc(-c2ccccc2)[nH]c2ccccc12,-8%,-2.1%,-3%,5
Cc1ccc(C(=O)Nc2nnc(C)s2)cc1,9%,-3.8%,-12%,2
Cc1ccc(NC(=O)C(NC2CCCc3ccccc32)c2ccccc2)cc1Cl (stereo not given),-4%,4.5%,2%,-1
N#CCCN1CCN(S(=O)(=O)c2ccc(S(=O)(=O)NCC3CCCO3)cc2)CC1 (stereo not given),-9%,-1.1%,0%,1
COc1ccc(NS(=O)(=O)c2cc3c4c(c2)CCN4C(=O)CC3)cc1OC,-5%,u,x,x
CCOP(=O)(OCC)C(NC(=O)Nc1ccc(Cl)cc1)c1ccccc1 (stereo not given),-6%,-3.7%,-3%,-2
CC1CCCC(NC(=O)c2cccc(N3CCCC3=O)c2)C1C (stereo not given),-16%,1.2%,-46%,6
O=[N+]([O-])c1ccc(N2CCCCC2)c(-c2nn[nH]n2)c1,15%,3.9%,-1%,-4
CCC(=O)OCCn1c(=O)c2ccccc2c2ccccc2c1=O,1%,-3.2%,1%,-2

# Some of these compounds in order of the Rango-impB inh value, lowest first.
molecule,Rango release inh,Rango-impB inh,miR-21 reporter,GLA inh pH 4.5
CCOP(=O)(OCC)C(NC(=O)Nc1ccc(Cl)cc1)c1ccccc1 (stereo not given),-6%,-3.7%,-3%,-2
O=C(CNC(=O)c1ccc(Cl)cc1Cl)OCc1nnc(-c2ccccc2Br)o1,-1%,-3.3%,x,x
COc1ccc(CC(=O)N/N=C/c2ccc(Cl)s2)cc1OC,-5%,-1.0%,-4%,x

# Other structures follow.
SMILES,Rango release inh,Rango-impB inh,miR-21 reporter,GLA inh pH 4.5
CCOc1ccc(NC(=O)CCc2nnc3ccc(N4CCC(C)CC4)nn23)cc1,-9%,-0.1%,-3%,x
COc1cccc(N2C(=O)CC(N3CCN(c4ccc([N+](=O)[O-])cc4)CC3)C2=O)c1 (stereo not given),0%,4.1%,0%,x
C/C(=N\NC(=S)Nc1cc(S(=O)(=O)N2CCOCC2)ccc1Cl)c1ccccc1F,4%,-2.6%,21%,-11
COc1ccc(/C=N/Nc2ccc(C(=O)O)cc2)cc1Br,16%,-1.1%,-41%,-1
CN(C)S(=O)(=O)N1CCC(Cc2ccccc2)CC1,2%,4.9%,-10%,-22
O=C(NCCN1CCN(C(=O)c2ccc(F)cc2)CC1)c1ccc(F)cc1,-1%,-0.7%,2%,x
Cc1c(C(=O)NCc2ccc3c(c2)OCO3)oc2ccc(S(=O)(=O)N3CCCCC3)cc12,6%,4.6%,22%,-2
O=C(Nc1ccccc1F)C(c1ccccc1)c1ccccc1,-12%,-0.9%,x,x
CN(C)/C=N/c1nc2ccc3c(c2s1)CCCC3,-1%,1.1%,-75%,-1
O=c1onc(-c2cccnc2)n1-c1ccccc1F,u,0.2%,-1%,-3
COc1cc(C(N)=O)cc(Cl)c1OC,-5%,0.7%,10%,7
COC(=O)c1sccc1NC(=O)COc1ccc(Cl)cc1,-3%,2.6%,-24%,0
COc1ccc(C(=O)N/N=C/c2ccc(OC)c(COc3c(F)c(F)cc(F)c3F)c2)cc1,-11%,3.6%,4%,x
COc1cccc(NC(=O)C2CCC(CNS(=O)(=O)c3cccs3)CC2)c1 (stereo not given),2%,1.3%,14%,1
Nc1cc(=O)n(Cc2ccccc2)c(=O)n1Cc1ccccc1,-7%,0.1%,x,x
CC(C)OCC1Cn2c(nc3c2c(=O)n(C)c(=O)n3C)O1 (stereo not given),6%,2.6%,6%,1
Cc1ccc(NC(=O)CN2CCCCCC2)cc1Br,10%,-0.7%,-24%,-6
Fc1cccc2sc(N3CCOCC3)nc12,1%,0.0%,-45%,-2
